Screening data deposited in PubChem by several laboratories.
Mtb growth: M. tuberculosis H37Rv growth inhibitors, H37Rv strain (AID 1626); inhibition, % at 10 µM; hits with a dose series show IC50 in µM; M. tuberculosis H37Rv growth inhibition; higher % means a stronger effect; 220,000 compounds, 0.95% hits;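 active means confirmed in a dose series; inconclusive means inhibition above 80% but not taken into the dose series; inactive means below 80% or under 30% at every dose of the series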;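 further: bacteria incubated seven days before Alamar blue readout; 0% = bacteria only wells and 100% = bacteria with antibiotic wells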
YopH inh: blocks Yersinia enterocolitica YopH tyrosine phosphatase | fluorescence Ex485/Em525 | inhibition, %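 (about 10 µM by stock and volumes)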 | 140,000 compounds, 0.16% hits | AID 898;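 active means inhibition of 50% or more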;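 further: controls were vehicle for no effect and minimum signal wells for full effect; inactives centre near -20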
Mtb betalactam: beta-lactam sensitization of Mtb H37Rv. inhibition, % at 25 µM. AID 434955. M. tuberculosis H37Rv growth with meropenem, percent inhibition; hits of this screen are not shown here. 330,000 compounds, 0.27% hits;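 active means about 74% or more and at least 40 points above the plate without the antibiotic, then above 30% in a dose series; inconclusive means first-round hits that could not be retested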;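 further: growth measured after seven days incubation then overnight dye step; 0% = bacteria only wells and 100% = bacteria with antibiotic; twin plates without the antibiotic show which effects depend on it; some results filed as inactive read as strong as hits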
Arbovirus anti: antivirals against arbovirus infection; arbovirus infection cell-based antiviral screen; AID 1251; inhibition, % at 10 µM; 200,000 compounds, 0.37% hits;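 active means inhibition from about 30%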;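 further: bluetongue infection of BSR cells; cell survival read as ATP light after 72 h; 0% = infected wells without compound and 100% = uninfected wells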
RecA intein inh: Mtb RecA intein splicing inhibition; inhibition, %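 (about 9 µM by stock and volumes)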; cell-free RecA intein splicing, fluorescence; 290,000 compounds, 0.75% hits; in the data active means inhibition above about 30%; inconclusive means no clear call, values can overlap the other calls;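 further: 0% = vehicle wells and 100% = reference inhibitor control wells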
Target sequence (P9WHJ3 whole entry, looked up): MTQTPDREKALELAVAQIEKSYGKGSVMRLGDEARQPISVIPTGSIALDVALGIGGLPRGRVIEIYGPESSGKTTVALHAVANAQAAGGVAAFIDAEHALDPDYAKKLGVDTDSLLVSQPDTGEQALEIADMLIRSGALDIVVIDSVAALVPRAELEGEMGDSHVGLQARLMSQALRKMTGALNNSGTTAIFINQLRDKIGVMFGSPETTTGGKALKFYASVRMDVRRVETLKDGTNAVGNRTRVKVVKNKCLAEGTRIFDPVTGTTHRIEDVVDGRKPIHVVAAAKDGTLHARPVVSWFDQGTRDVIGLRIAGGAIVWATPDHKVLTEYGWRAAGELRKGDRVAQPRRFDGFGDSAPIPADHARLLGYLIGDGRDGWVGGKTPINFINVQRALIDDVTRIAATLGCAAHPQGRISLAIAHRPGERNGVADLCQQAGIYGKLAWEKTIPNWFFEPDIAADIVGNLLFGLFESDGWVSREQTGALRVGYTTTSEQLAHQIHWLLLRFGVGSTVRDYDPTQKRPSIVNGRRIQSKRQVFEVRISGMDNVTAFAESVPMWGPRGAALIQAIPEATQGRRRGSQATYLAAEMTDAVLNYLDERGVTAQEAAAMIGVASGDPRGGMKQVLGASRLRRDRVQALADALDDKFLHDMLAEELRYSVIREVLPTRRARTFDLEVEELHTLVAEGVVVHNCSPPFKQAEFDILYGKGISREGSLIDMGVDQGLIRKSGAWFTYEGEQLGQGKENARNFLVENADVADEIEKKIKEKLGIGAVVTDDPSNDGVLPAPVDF
Arbovirus anti repeat: also measured in Arbovirus anti; calls as there; inhibition, %; measured here: 10K subset replicate screen; many hits read low in the repeat;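 first of two repeat runs on a subset; 0% = infected and 100% = uninfected wells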
* marks the source's active call; other numbers are inactive results; ? = inconclusive; nt = no result given. Some of the compounds tested. The share of hits here may be higher or lower than overall.

SMILES	Mtb growth	YopH inh	Mtb betalactam	Arbovirus anti	RecA intein inh	others
Nc1ccccc1SCCS(=O)(=O)c1ccc(Cl)cc1	nt	nt	3.4	nt	4.3
c1csc(-c2nnsc2-c2nc3ccccc3[nH]2)c1	5.2%	-7.5	-7.8	10.1	0.9
CC(C)Oc1ccc(CNC(=O)c2ccc3c(c2)N(C)CCS3)cc1	nt	nt	2.7	nt	-5.3
Cc1cc(C)nc(N/C(=N\S(=O)(=O)Cc2ccccc2)Nc2ccccc2Br)n1	5.3%	-22.5	8.7	-3.3	0.2
NC(=O)CC(NC(=O)Cc1cccc2ccccc12)c1ccc(NCCN2CCCCC2)c([N+](=O)[O-])c1 (stereo not drawn)	nt	nt	-6.2	nt	-0.9
O=C(c1ccc2oc(Cc3ccc(Cl)cc3)nc2c1)N1CC[C@H](O)C1	nt	nt	2.5	nt	-0.2
CNc1nc(C)nc(-n2nc(C)cc2C)n1	6.4%	18.0	4.4	0.3	-1.4
CC(C)C[C@H]1COCCS(=O)(=O)N1Cc1ccc(Cl)c(Cl)c1	0.4%	nt	-7.4	nt	6.3
Cc1ccc(C(=O)N/C(=C/c2cccs2)C(=O)NCc2ccco2)cc1	5.5%	-27.9	0.6	1.2	0.3
CCOC(=O)c1ccccc1NC(=O)c1ccccc1NS(C)(=O)=O	5.7%	-15.2	2.0	6.9	0.0
Cc1cccc2cc(CN(Cc3ccco3)C(=O)c3ccco3)c(=O)[nH]c12	nt	nt	-9.2	nt	-1.6
CCOC(=O)N1CCC(NC(=O)c2oc3c(F)cccc3c2C)CC1	nt	nt	-1.1	nt	1.7
O=C(NCc1ccco1)C12CN(Cc3ccccc3)CC1C(c1ccc([N+](=O)[O-])cc1)=NO2 (stereo not drawn)	6.5%	-20.1	-5.7	4.8	3.0
CCCCNc1cc(=O)oc2ccccc12	-3.1%	-20.9	0.5	-4.4	-2.7
CCOc1ccc(N2CC(C(=O)Nc3ccc(F)cc3F)CC2=O)cc1 (stereo not drawn)	-10.9%	-7.3	-11.4	-1.1	-2.9
COc1cc(OC)c(OC)cc1/C=N/Nc1ncnc2c1[nH]c1ccccc12	0.5%	-10.9	-9.7	-15.1	-9.3
Cc1cc(C(=O)CSc2nnc(-c3ccco3)o2)c(C)n1-c1ccc2c(c1)OCCO2	5.4%	-49.4	4.9	9.5	0.3
COc1cccc(OCc2cc(C(=O)N3CCN(c4ccccc4OC)CC3)no2)c1	nt	nt	3.1	nt	6.7
CC(OC(=O)c1ccc(NS(=O)(=O)c2ccc3[nH]c(=O)[nH]c3c2)cc1)C(=O)Nc1ccc(Cl)cc1 (stereo not drawn)	8.3%	nt	-0.1	1.3	2.3
O=C(OC(C(=O)NCc1cccs1)c1ccccc1F)c1ccco1 (stereo not drawn)	-7.1%	-19.4	-6.8	-1.7	0.7
CCOc1ccc(C(=O)OC2CCN(C)CC2)cc1	2.4%	-20.5	-2.9	-8.5	0.1
CCCCN=Cc1c(C)[nH]n(-c2ccccc2)c1=S	-2.2%	nt	-0.9	3.3	nt
O=C(c1ccc2nc[nH]c2c1)N1CCc2ccccc2C1	-12.7%	nt	-0.1	-1.3	0.8
COc1ccc(CCNC(=O)[C@H](C)NC(=O)[C@@H]2CSC3c4ccccc4C(=O)N32)cc1 (stereo partly drawn)	nt	nt	1.6	nt	0.0
COc1ccc(C(=O)C2CCCN(Cc3ccc4nonc4c3)C2)c(OC)c1 (stereo not drawn)	4.6%	nt	-0.4	3.3	1.5
Cc1cc(C(=O)NCCCOC(C)C)c2ccccc2n1	-14.9%	-22.7	-7.8	10.5	-0.5
Cc1c(C)c2ccc(OCC(=O)N3CCC[C@@H]3C(=O)O)c(C)c2oc1=O	nt	nt	-2.6	nt	4.1
COc1ccc(Cn2nnnc2C(c2ccccc2Cl)N2CCC(C(N)=O)CC2)cc1 (stereo not drawn)	-9.1%	-108.5	-2.9	2.5	1.1
COc1ccc(NC(=O)CCN2CCCCCC2)cc1	nt	-33.9	-15.9	4.1	0.3
COC(=O)c1ccc(NC(=O)Cc2ccccc2)cc1	-10.7%	1.4	-13.7	-5.0	1.4
Cc1ccc(N2CC(C)Cn3c2nc2c3c(=O)n(CC(=O)OCc3ccccc3)c(=O)n2C)cc1C (stereo not drawn)	-10.8%	-19.8	-1.4	4.8	-1.6
CCN1C(=O)c2ccccc2S(=O)c2ccc(C(=O)N3CCN(C(=O)c4ccco4)CC3)cc21 (stereo not drawn)	0.0%	-38.9	4.7	1.4	1.2	Arbovirus anti repeat=-2.3
COc1ccc(/C(C)=N/NC(=O)CNC(=O)c2ccco2)cc1	nt	nt	4.4	nt	-2.4
Cc1nc(N2CCOCC2)sc1C(=O)NN	6.0%	nt	-4.7	1.8	-0.4
COc1cccc(CN(C)C(=O)C2CC(=O)N(c3ccc4c(c3)OCCO4)C2)c1 (stereo not drawn)	nt	nt	-4.7	nt	1.0
CCc1cc2c(=O)n(-c3ccc(Br)cc3)cnc2s1	-1.2%	-8.0	-0.7	-2.9	0.5
CCOc1ccc(CNC(=O)CCC(=O)N2CCSc3ccccc32)cc1	nt	nt	-9.7	nt	-0.5
COc1ccc(C(=O)C(Cc2ccccc2)N(C)C)cc1 (stereo not drawn)	1.6%	21.4	-13.7	4.1	2.8
Cc1ccc(NC(=O)CN(C)CC(=O)Nc2sc3c(c2C(N)=O)CCC3)cc1	nt	nt	49.2	nt	-1.2
CC(C)Cc1ccc(CN2CCC(n3nccc3NC(=O)C3CCCC3)CC2)cc1	nt	nt	38.9	nt	5.7
COc1ccccc1CNC(=O)C1CCN(C(=O)[C@@H]2Cc3ccccc3CN2)CC1	nt	nt	4.3	nt	-0.6
CCCOc1ccc(-c2nnn(CC(=O)Nc3cccc(C(=O)OC)c3)n2)cc1	-9.1%	nt	-0.9	-9.3	-3.6
COc1cccc(N=Cc2c[nH][nH]c2=O)c1	-6.0%	-45.4	-10.0	-8.9	nt
COc1cc2c(cc1OC)/C(=C/C(=O)c1ccc(C)cc1)NCC2	nt	nt	5.9	nt	5.2
c1ccc(N2CCOCCOCCOCCOCC2)cc1	-11.3%	nt	-7.2	nt	0.8
CCCn1c(=O)c2ccccc2n2c(SCc3nc4ccccc4s3)nnc12	-6.0%	-50.1	-8.2	5.0	-1.5
COc1ccc(CCNC(=O)CNC(=O)Cn2ccc3ccccc3c2=O)cc1OC	1.0%	nt	-0.5	nt	-2.0
Cc1cccc(/C=C(\C(=O)C(=O)O)c2ccc3ccccc3n2)c1	-2.0%	nt	-3.9	4.9	-3.3
O=C(O)c1cccc(Nc2nc3ccccc3nc2NS(=O)(=O)c2cccs2)c1	nt	nt	-3.1	nt	-4.6
CC(=O)N[C@H]1[C@H](Oc2ccc3c(c2)CCC2C3CC[C@]3(C)C(=O)CCC23)O[C@H](CO)[C@@H](O)[C@@H]1O (stereo partly drawn)	nt	nt	-5.5	nt	-0.9
(more compounds)
SMILES	Mtb growth	YopH inh	Mtb betalactam	Arbovirus anti	RecA intein inh	others
Oc1ccc(-n2cccc2/C=N/n2cnnc2)cc1	-3.7%	nt	-4.7	-1.8	0.0
O=C(Nc1ccc2c(c1)OCCO2)C1CCN(C(=O)c2ccc([N+](=O)[O-])cc2)CC1	5.4%	nt	-1.9	6.0	-2.7
CCc1c(O)c(/C(C)=N\O)c(=O)n(-c2ccccc2)c1-c1ccccc1	8.9%	-9.8	4.6	8.3	-1.6
CC(C)C(=O)NC(=O)COC(=O)/C=C/c1cccs1	3.4%	nt	-5.0	2.5	1.5
CCOC(=O)Cc1nn(C)c(=O)c2ccccc12	-1.8%	-42.5	-0.3	2.1	0.8
CNC(=O)c1ccsc1NC(=O)CN1C(=O)CCC1=O	2.5%	nt	2.1	11.3	-0.1	Arbovirus anti repeat=-2.0
O=C(CSc1ccc(Cl)cc1)Nc1cccc(-c2nnc(-c3ccco3)o2)c1	-1.0%	0.6	-4.6	-10.3	-1.7
COc1cccc(C(=O)NCC(=O)NCc2cc(=O)n(C)c(=O)n2C)c1	nt	nt	6.5	nt	1.3
CCCC(=O)Nc1ccc(N2CCN(C(=O)c3cc4ccccc4o3)CC2)cc1	nt	nt	0.5	nt	-0.4
OC(c1ccc(F)cc1)C(c1ccccc1)N1CCOCC1 (stereo not drawn)	2.7%	0.1	-10.2	6.3	0.9
O=C(NC(=O)c1ccccc1Cl)Nc1ccc(-c2cnco2)cc1	nt	nt	8.4	nt	0.1
Cc1ccc(NC(=O)CCC(=O)N/N=C/c2cccs2)cc1C	17.4%	-29.4	30.5	-6.2	-1.3
CSc1ccc(S(=O)(=O)Nc2ccc(NC(C)=O)cc2)cc1	8.6%	6.6	3.9	9.9	-3.5
O=C(c1ccc2c(c1)OCO2)N1CCC2(CC1)Oc1ccc(Cl)cc1C(=O)C21CC(c2ccccc2)=NO1 (stereo not drawn)	-4.1%	nt	-1.7	nt	0.7
CC(=O)c1cc(CN2CCC(C(=O)Nc3ccc(-n4nc(C)cc4C)cc3)CC2)cs1	nt	nt	-6.5	nt	-8.6
CC(C)NC(=S)NC(=O)c1ccc(Cl)cc1Cl	6.3%	-27.8	0.7	-1.6	3.9
Cc1nc(N)sc1Cc1ccc2c(c1)OCO2	-10.3%	-24.1	-12.6	7.5	4.6
COCCC(=O)N1CCC(C(=O)Nc2ccc(Oc3ccccc3)nc2)CC1	nt	nt	-1.8	nt	1.7
C/C(=N\NC(=O)c1cccc(S(=O)(=O)N2CCCC2)c1)c1ccco1	-2.7%	nt	-3.6	1.4	-0.1
COC(=O)c1sc(S(=O)(=O)NCCC(=O)O)c(C(=O)OC)c1C	-10.1%	nt	-7.5	18.3	0.5
COc1ccc(CCN)cc1OC	4.7%	nt	-5.8	nt	-0.2
O=C(/C=C/c1ccccc1)N/C(=C/c1ccccc1)C(=O)N1CCCCC1	-2.5%	-13.5	-4.0	7.4	-1.7
O=[N+]([O-])c1c(Nc2ccccc2)ccc2nonc12	-3.7%	-18.9	-4.5	3.7	0.6
Cc1ccsc1/C=C1\SC(N)=NC1=O	nt	-9.5	-4.2	-8.5	0.8
C=CCCC(=O)Nc1nc(C)c(-c2csc(Nc3ccc(Cl)cc3Cl)n2)s1	33.0%	-8.4	90.6	-19.2	3.8
S=c1[nH]nc(-c2ccncc2)n1/N=C/c1cn(-c2ccccc2)nc1-c1ccc(Cl)cc1	-3.1%	nt	0.4	nt	-1.2
Oc1ccc(/C=N/NC2=NCCCCC2)cc1	-1.4%	-32.3	-0.2	-4.5	1.4
CCn1cc(C(=O)OCC(=O)Nc2ccc(C(C)C)cc2)c(=O)c2ccc(C)nc21	-7.9%	nt	-11.6	9.8	1.8
CCOC(=O)C1CCN(S(=O)(=O)c2ccc3c(c2)NC(=O)C(C)C(=O)N3)CC1 (stereo not drawn)	nt	nt	4.4	nt	-0.8
CN1C(=O)CSc2ccc(NC(=O)N3CCN(c4ccccc4)CC3)cc21	-5.4%	nt	-8.6	-4.7	2.8

Five compounds picked at random from those above:
SMILES	Mtb growth	YopH inh	Mtb betalactam	Arbovirus anti	RecA intein inh	others
COCCC(=O)N1CCC(C(=O)Nc2ccc(Oc3ccccc3)nc2)CC1	nt	nt	-1.8	nt	1.7
S=c1[nH]nc(-c2ccncc2)n1/N=C/c1cn(-c2ccccc2)nc1-c1ccc(Cl)cc1	-3.1%	nt	0.4	nt	-1.2
COc1cc2c(cc1OC)/C(=C/C(=O)c1ccc(C)cc1)NCC2	nt	nt	5.9	nt	5.2
COc1ccc(NC(=O)CCN2CCCCCC2)cc1	nt	-33.9	-15.9	4.1	0.3
Cc1cc(C)nc(N/C(=N\S(=O)(=O)Cc2ccccc2)Nc2ccccc2Br)n1	5.3%	-22.5	8.7	-3.3	0.2

(listing goes on)
SMILES	Mtb growth	YopH inh	Mtb betalactam	Arbovirus anti	RecA intein inh	others
Cc1ccc(N(Cc2cc(=O)[nH]c3ccccc23)C(=O)CCl)cc1	nt	nt	?	nt	69.5*
O=C(c1ccc(Br)o1)N1CCN(c2ccccc2F)CC1	-1.2%	-10.5	3.3	-0.1	-0.8
O=C1COc2ccc(-c3n[nH]c(=O)c4ccccc34)cc2N1	-1.9%	nt	21.1	2.6	0.2
O=C(CO/N=C/c1c(Cl)cccc1Cl)NNC(=O)c1ccc(Cl)cc1	-1.1%	nt	-12.4	nt	1.5
Cc1cc(NC(=O)C(C)(C)C)no1	0.3%	-27.2	-7.7	3.6	-2.4
CC(C)(C)c1ccc(C(=O)NCc2ccco2)cc1	nt	nt	-3.9	nt	0.1
CN=c1scc(-c2ccccc2F)n1/N=C/c1ccc[nH]1	7.2%	nt	11.7	-9.6	2.0
Cn1ncc(C#N)c1NC(=O)C1CC(c2ccc(Cl)c(Cl)c2)=NO1 (stereo not drawn)	-5.2%	-10.5	-3.5	8.4	1.7
COc1cc(NC(=O)CN2C(=O)C(C)N(c3ccc(C)cc3)C2=O)cc(OC)c1 (stereo not drawn)	nt	nt	1.0	nt	-0.6
